Source: PubChem BioAssay
Hsc70 ATP site – small molecules displacing fluorescent ligand from Hsc70 – biochemical, fluorescence polarization, primary screen (AID 568); Hsc70 fluorescence polarization, probe displacement; higher % means a stronger effect; strong numbers were not always called active; 83,000 tested, under 10 active; displacement, % at 20 µM; hits with a dose series show IC50 in µM;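 active means displacement above 50% without optical interference and an IC50 on retest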;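 further: ATPase domain with a fluorescein-tagged ATP probe; 0% = vehicle and 100% = excess ADP; read after one hour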
MT1-MMP reporter – MT1-MMP gene expression reporter suppression – cell-based, luciferase reporter, luminescence (AID 618). 87,000 tested, 0.62% active. calls from a first round at 10 µM; hits with a dose series show EC50 in µM. MT1-MMP promoter luciferase reporter cells, luminescence;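 active means over half of the reporter light lost at 10 µM or EC50 under 50 µM; inactive means the rest and hits that failed the dose series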;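 further: actives suppress MT1-MMP promoter-driven transcription so potencies describe inhibitors; HT1080 fibrosarcoma cells; overnight exposure; toxic or luciferase-blocking compounds were not removed from the actives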
WNV NS2B-NS3 inh – WNV NS2B-NS3 proteinase inhibition | P06935 | WNV NS2B-NS3 protease, fluorogenic substrate Ex360/Em465; active compounds read low | z-score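 (tested at a level between 10 and 100 µM)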 | 65,000 tested, 0.18% active | AID 577;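 active means z-score at -3 or under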;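 further: score is relative to mean and spread of the compound wells of a plate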
Target sequence (P06935 1371-1501 limits assumed): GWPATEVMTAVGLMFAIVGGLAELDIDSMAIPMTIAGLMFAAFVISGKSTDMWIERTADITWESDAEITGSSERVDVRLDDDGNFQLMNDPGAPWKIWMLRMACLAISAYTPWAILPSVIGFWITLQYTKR
Target sequence (P06935 1502-1679 limits assumed): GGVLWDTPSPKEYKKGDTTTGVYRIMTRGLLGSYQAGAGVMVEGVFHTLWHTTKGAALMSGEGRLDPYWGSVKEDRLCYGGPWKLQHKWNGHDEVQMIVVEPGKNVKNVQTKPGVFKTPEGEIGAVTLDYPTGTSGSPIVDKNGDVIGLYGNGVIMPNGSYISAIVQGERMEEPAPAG
Numbers without * were called inactive; i = inactive; . = not tested or not shown.

#1 O=C(NCc1ccccn1)C1CCN(S(=O)(=O)c2ccccc2)CC1
#2 Cc1ccc2cc(CN(CC3CCCO3)S(=O)(=O)c3ccccc3)c3nnnn3c2c1 (centres undefined)
#3 CC1CCN(CC(O)COc2ccc(F)cc2)CC1 (centres undefined)
#4 CCC1CCCCN1C(=O)CSc1nnc(-c2ccc(Cl)s2)o1 (centres undefined)
#5 Cc1cc(C)nc(N2CCC(C(=O)NCCc3ccc(F)cc3)CC2)n1
#6 Cc1cc(N2CCN(C(=O)c3ccco3)CC2)n2nc(-c3cccc(F)c3)cc2n1

Compound	1	2	3	4	5	6
Hsc70 ATP site	-1.1%	0.4%	1.8%	0.1%	-2.2%	-2.4%
MT1-MMP reporter	i	i	i	i	i	i
WNV NS2B-NS3 inh	-1.34	.	-0.58	0.24	-0.00113	0.38

#7 CCC(C)NC(=O)c1cc(OC)c(OC)c(OC)c1 (centres undefined)
#8 Cc1ccc(-c2noc(CCC(=O)NCCN3CCN(Cc4ccccc4)CC3)n2)cc1
#9 O=C(CCCN1CCC(c2ccccc2)C1)c1ccc2c(c1)OCCO2 (centres undefined)
#10 Cc1ccc(C(C(=O)NC2CCCC2)N(Cc2ccc3c(c2)OCO3)C(=O)Cc2cccs2)cc1 (centres undefined)
#11 CCc1ccccc1NC(=O)c1cnc2scc(C)n2c1=O
#12 CC1CCCN(Cc2nc3c(c(=O)n(C)c(=O)n3C)n2Cc2cccc3ccccc23)C1 (centres undefined)

Compound	7	8	9	10	11	12
Hsc70 ATP site	0.7%	-3.9%	-1.3%	0.3%	0.1%	-3.2%
MT1-MMP reporter	i	i	i	i	i	i
WNV NS2B-NS3 inh	-0.07	0.84	0.3	.	0.76	0.81

#13 O=C(c1ccc(COCC(F)(F)F)o1)N1CCCCCC1
#14 O=C(CSc1nc2ccccc2c(=O)n1-c1ccc(Cl)cc1)c1ccco1
#15 CCOc1ccc(NC(=O)Cn2nnc(C(=O)NCc3ccccc3OC)c2N)cc1
#16 O=C1C=C(O)CC(c2ccc(Cl)c(Cl)c2)C1 (centres undefined)
#17 Cc1nnc(SCC(=O)Nc2sc3c(c2C#N)CCCCC3)n1N
#18 CC(=O)Nc1ccc(NC(=O)c2c(C)nc3ccccn23)cc1

Compound	13	14	15	16	17	18
Hsc70 ATP site	2.6%	0.1%	6.9%	1.0%	-4.3%	-1.8%
MT1-MMP reporter	i	i	i	i	i	i
WNV NS2B-NS3 inh	0.68	0.75	1.01	0.51	.	0.72

#19 COc1ccc(S(=O)(=O)N2CCCC(C(=O)Nc3ccc(OC)c(OC)c3)C2)cc1 (centres undefined)
#20 CCOC(=O)N1CCN(S(=O)(=O)c2cccs2)CC1
#21 COCC(=O)N(Cc1nc2ccccc2c(=O)[nH]1)Cc1cccs1
#22 O=C(c1ccc(F)cc1)n1ccc(-c2cnc(-c3ccccc3)s2)n1
#23 CCN(CC)c1ccc(NC(=O)c2[nH]c(C)c(C(C)=O)c2C)c(C)c1
#24 CCOc1ccc(-n2c(SCc3ccc(C(=O)OC)o3)nc3c(c2=O)SCC3)cc1

Compound	19	20	21	22	23	24
Hsc70 ATP site	2.9%	1.1%	2.7%	5.0%	-4.3%	-5.2%
MT1-MMP reporter	i	i	i	i	i	i
WNV NS2B-NS3 inh	-0.24	0.55	-0.44	.	0.89	-1.11

Just MT1-MMP reporter and Hsc70 ATP site, for 2 of the compounds above:
| item | compound | MT1-MMP reporter | Hsc70 ATP site |
| --- | --- | --- | --- |
| 19 | COc1ccc(S(=O)(=O)N2CCCC(C(=O)Nc3ccc(OC)c(OC)c3)C2)cc1 (centres undefined) | i | 2.9% |
| 20 | CCOC(=O)N1CCN(S(=O)(=O)c2cccs2)CC1 | i | 1.1% |

(cont.)
#25 O=C(OCn1nnc2ccccc2c1=O)C1CCN(S(=O)(=O)c2cccs2)CC1
#26 CN(C)c1ccc(-c2nn3c(C4CCCCC4)nnc3s2)cc1
#27 COc1oc(-c2ccc(Cl)cc2)nc1C(F)(F)F
#28 COc1cccc(-c2nc(NCCN3CCOCC3)c3ccccc3n2)c1O
#29 CCOc1ccc(C(=O)NCCC(=O)NCCCC(=O)O)cc1
#30 O=c1c2cnn(-c3ccccc3)c2ncn1Cc1ccccn1

Compound	25	26	27	28	29	30
Hsc70 ATP site	5.8%	0.5%	2.4%	3.9%	1.8%	0.0%
MT1-MMP reporter	i	i	i	i	i	i
WNV NS2B-NS3 inh	0.3	-0.14	.	0.31	0.61	0.86

#31 Cc1cccc(C(=O)NC2CC3CCCC(C2)N3S(=O)(=O)c2ccccc2)c1 (centres undefined)
#32 Cc1[nH]c2ccccc2c1SCCNC(=O)c1ccc(Br)o1
#33 CN(Cc1ccccc1)S(=O)(=O)c1ccc(NC(=O)C2CCCO2)cc1 (centres undefined)
#34 COc1ccc(-n2c(COc3ccc(C)cc3)nnc2SCc2ccc(C#N)cc2)cc1
#35 Cc1cc(C)c2nc(N3CCN(C)CC3)c(C#N)cc2c1
#36 CCc1nnc(NC(=O)c2c(C)nn(-c3ccccc3)c2Cl)s1

Compound	31	32	33	34	35	36
Hsc70 ATP site	0.9%	7.4%	-7.5%	1.7%	-5.3%	-0.4%
MT1-MMP reporter	i	i	i	i	i	i
WNV NS2B-NS3 inh	.	.	-0.73	.	-0.77	.

#37 O=C(c1ccc(F)cc1)N1CCC(N2CCOCC2)CC1
#38 O=C1CCc2cc(S(=O)(=O)N3CCC(C(=O)NCCC4=CCCCC4)CC3)ccc2N1
#39 CC(=O)N1CCC2(CC1)C(C#N)=C(N)Oc1n[nH]c(C)c12
#40 CN(c1ccccc1C(=O)O)S(=O)(=O)c1ccc2c3c(cccc13)C(=O)N2
#41 COc1cc(C(=O)NCCC(=O)NCCCN2CCCCC2)cc(OC)c1OC
#42 COCc1nc2ccccc2n1CCOc1ccccc1OC

Compound	37	38	39	40	41	42
Hsc70 ATP site	3.0%	-4.7%	107.3%	2.9%	-4.1%	4.1%
MT1-MMP reporter	i	i	i	i	i	i
WNV NS2B-NS3 inh	.	0.31	-0.11	-1.21	2.46	0.51

#43 O=C(NCCCN1CCC(Cc2ccccc2)CC1)C1CCN(S(=O)(=O)N2CCOCC2)CC1
#44 CCOC(=O)c1cccc(NC(=O)CSc2nnc(CNc3ccc(C)cc3)n2CC)c1
#45 CN1CCN(CC#CC(C)(O)C2CC3C=CC2C3)CC1 (centres undefined)
#46 O=C(CCCN1C(=O)c2ccccc2C1=O)NCCC1=CCCCC1
#47 CCN(C(=O)CSc1nnc(Cc2cccc3ccccc23)n1N)C1CCS(=O)(=O)C1 (centres undefined)
#48 CCCC(c1nnnn1CCC(C)C)N1CCC(C(N)=O)CC1 (centres undefined)

Compound	43	44	45	46	47	48
Hsc70 ATP site	1.6%	-0.7%	-5.8%	4.9%	5.5%	2.0%
MT1-MMP reporter	i	i	i	i	i	i
WNV NS2B-NS3 inh	-0.69	-0.21	1.41	-0.24	.	-0.04

Sorted by formula weight (low to high): some entries from above.
#16 O=C1C=C(O)CC(c2ccc(Cl)c(Cl)c2)C1 (centres undefined)
#35 Cc1cc(C)c2nc(N3CCN(C)CC3)c(C#N)cc2c1
#29 CCOc1ccc(C(=O)NCCC(=O)NCCCC(=O)O)cc1
#36 CCc1nnc(NC(=O)c2c(C)nn(-c3ccccc3)c2Cl)s1
#22 O=C(c1ccc(F)cc1)n1ccc(-c2cnc(-c3ccccc3)s2)n1
#5 Cc1cc(C)nc(N2CCC(C(=O)NCCc3ccc(F)cc3)CC2)n1
#4 CCC1CCCCN1C(=O)CSc1nnc(-c2ccc(Cl)s2)o1 (centres undefined)
#40 CN(c1ccccc1C(=O)O)S(=O)(=O)c1ccc2c3c(cccc13)C(=O)N2

Compound	16	35	29	36	22	5	4	40
Hsc70 ATP site	1.0%	-5.3%	1.8%	-0.4%	5.0%	-2.2%	0.1%	2.9%
MT1-MMP reporter	i	i	i	i	i	i	i	i
WNV NS2B-NS3 inh	0.51	-0.77	0.61	.	.	-0.00113	0.24	-1.21

#31 Cc1cccc(C(=O)NC2CC3CCCC(C2)N3S(=O)(=O)c2ccccc2)c1 (centres undefined)
#6 Cc1cc(N2CCN(C(=O)c3ccco3)CC2)n2nc(-c3cccc(F)c3)cc2n1
#15 CCOc1ccc(NC(=O)Cn2nnc(C(=O)NCc3ccccc3OC)c2N)cc1
#8 Cc1ccc(-c2noc(CCC(=O)NCCN3CCN(Cc4ccccc4)CC3)n2)cc1
#19 COc1ccc(S(=O)(=O)N2CCCC(C(=O)Nc3ccc(OC)c(OC)c3)C2)cc1 (centres undefined)
#38 O=C1CCc2cc(S(=O)(=O)N3CCC(C(=O)NCCC4=CCCCC4)CC3)ccc2N1
#44 CCOC(=O)c1cccc(NC(=O)CSc2nnc(CNc3ccc(C)cc3)n2CC)c1

Compound	31	6	15	8	19	38	44
Hsc70 ATP site	0.9%	-2.4%	6.9%	-3.9%	2.9%	-4.7%	-0.7%
MT1-MMP reporter	i	i	i	i	i	i	i
WNV NS2B-NS3 inh	.	0.38	1.01	0.84	-0.24	0.31	-0.21

Next compounds.
#49 Cc1ccc(S(=O)(=O)c2c(N)n(CCN3CCOCC3)c3nc4ccccc4nc23)cc1C
#50 Cc1cccc(NCc2nc(SCC(N)=O)n[nH]2)c1
#51 CCCn1c(=O)c(C(=O)Nc2ccccc2)c(O)c2ccccc21
#52 O=C(O)CCCCCn1c(SCC(=O)N2CCCC2)nc2ccsc2c1=O
#53 COc1ccc(-c2cn3c(C)c(C(=O)Nc4cccc(C)n4)sc3n2)cc1
#54 Cn1c(=O)c2c(nc(CN3CCN(C(=O)c4ccco4)CC3)n2CCCc2ccccc2)n(C)c1=O

Compound	49	50	51	52	53	54
Hsc70 ATP site	-8.5%	4.1%	6.4%	-13.2%	7.2%	-0.1%
MT1-MMP reporter	i	i	i	i	i	i
WNV NS2B-NS3 inh	-0.09	-0.53	.	-0.06	-0.75	0.54

#55 CC1(CCc2ccccc2)NC(=O)N(Cc2nnc(-c3ccccc3Br)o2)C1=O (centres undefined)
#56 CC(=O)Nc1ccc(N/C=C/C(=O)c2ccco2)cc1
#57 COc1ccc(C2=NOC(C(=O)Nc3c(C)n(C)n(-c4ccccc4)c3=O)C2)cc1OC (centres undefined)
#58 COc1ccc(Br)cc1C(=O)Nc1ccc(NC(=O)c2ccco2)cc1

Compound	55	56	57	58
Hsc70 ATP site	-2.9%	-3.2%	-5.8%	-2.6%
MT1-MMP reporter	i	i	i	i
WNV NS2B-NS3 inh	-0.8	-0.00603	-0.41	.

Compounds were not picked by outcome. About 0.87% of those tested had a hit in this group.
